Screening results from PubChem BioAssay.
Vaccinia mCherry = inhibitors of vaccinia virus infection (mCherry reporter signal); 310,000 compounds, 0.63% hits; AID 720579; Potency, µM (series often up to 36.5 µM), inactives show at the highest dose activity change, negative = inhibition, usual class: inhibitors; Vaccinia virus mCherry reporter infection, fluorescence; about a quarter of the inactives have no number; active = well fitted inhibition curve with a large enough effect; inconclusive = small, poorly fitted or top-dose-only effect; inactive = no such curve, though single readings can be large or run the other way; tested in A549 cells; also: nearly all actives have a fitted effect of over 35% in size; inactives centre near -10
Vaccinia Venus = inhibitors of vaccinia virus (Venus reporter) | Vaccinia virus Venus reporter expression, fluorescence | Potency, µM (highest dose often 36.5 µM), inactives show at the top dose activity change, negative = inhibition, actives largely listed as inhibitors | 330,000 compounds, 0.46% hits; active means well fitted inhibition curve with a large enough effect; inconclusive means small, poorly fitted or top-dose-only effect; inactive means no such curve, though single readings can be large or run the other way; tested in A549 cells; also: nearly all actives have a fitted effect of over 30% in size; inactives centre near -10
Active calls of the source: *; i = inactive; ? = inconclusive; . = not tested or not shown; & = joins results of further samples; [ ] = remark or other dose. % is scaled to controls: 0 for no effect and ±100 for the full control effect; potency is read from the fitted curve at half-maximal effect. Rows are unselected; overall some 0.87% were active at least once.

item | smiles | Vaccinia mCherry | Vaccinia Venus
1 | CCN(CC(=O)Nc1ccc(OC)cc1)C(=O)c1ccc(NS(=O)(=O)c2ccc(C(C)=O)cc2)cc1 | i | -2%
2 | Cc1nn(Cc2c(F)c(F)c(F)c(F)c2F)c(C)c1NC(=O)c1nn(C)cc1[N+](=O)[O-] | -7% | -28%
3 | COc1ccccc1NC(=O)CCSc1nnnn1C | -22% | -13%
4 | O=C(CCn1c(=O)oc2ccccc21)N1CCN(c2ccccc2Cl)CC1 | ? | ?
5 | Cc1cc(NC(=O)CC23CC4CC(C2)CC(CC(=O)Nc2cc(C)on2)(C4)C3)no1 | -5% | ?
6 | COCCNC(=O)CN(Cc1ccc(F)cc1)C(=O)CCC(=O)Nc1nccs1 | -14% | -10%
7 | COc1ccc(S(=O)(=O)N2CCC[C@H]2C(=O)N2CCC[C@H]2C(=O)NCc2ccncc2)cc1C | -4% | 0%
8 | Cc1ccc2[nH]c(O)c(N=NC(=O)CCc3ccccc3)c2c1Br | -12% | -1%
9 | CC(=O)N(CCCCl)C(C#N)c1ccccc1 (centres undefined) | i | -5%
10 | COC(=O)C1=C(c2ccccc2OCc2ccccc2)C[C@@H]2CC[C@H]1N2C(=O)NC1CCN(Cc2ccccc2)CC1 | ? | ?
11 | CCc1c(C)nc(N2CCN(c3ccc(Cl)cc3)CC2)[nH]c1=O | -15% | 7%
12 | Cn1nnc2cc(C(=O)Nc3ccccc3)ccc21 | 3% | 4%
13 | CC(NC(=O)c1ccc(Cl)cc1)C(=O)N1CCCCC1 (centres undefined) | -12% | -12%
14 | CCOC(=O)c1c(C)n(-c2ccc(C)cc2)c2c(C(C(C)=O)C(=O)O)c(Br)c(O)c(O)c12 (centres undefined) | . | ?
15 | CCN(CC)C(=O)c1ncn2c1C(=O)N(C)CC2 | 0% | 0%
16 | COc1cc(/C=N/n2nnnc2N)ccc1OC(C)=O | -9% | -3%
17 | CC(=O)N1CCc2cc(Br)cc(S(=O)(=O)N3CCN(c4cccc(C)c4)C(C)C3)c21 (centres undefined) | -7% | 7%
18 | CCOc1ccccc1C(=O)NCC(=O)OCC(=O)N1CCCC1 | i | -4%
19 | CN(C)CCOc1ccc2c(c1)C(=O)C(=Cc1ncc([N+](=O)[O-])n1C)C2 | ? | ?
20 | COC(=O)C1=C(c2ccc(C(C)=O)cc2)C[C@@H]2CC[C@H]1N2C(=O)N1CCCCC1 | i | -10%
21 | O=C(Nc1ccc(F)cc1)c1cccc2c1C(=O)N(Cc1ccccn1)C2 | -15% | -10%
22 | COc1ccc(C(=O)/C=C/Nc2ccc(S(=O)(=O)Nc3nc(C)cc(C)n3)cc2)cc1OC | -18% | -18%
23 | Cc1cccc(C)c1NC(=O)c1nc(S(=O)(=O)Cc2ccccc2)ncc1Cl | -29% | -9%
24 | Cc1cc(NC(=O)CCC(=O)N(CC(=O)NC2CCCC2)c2cccc(C)c2C)no1 | -14% | -7%
25 | CC1CN(S(=O)(=O)c2cccc(C(=O)Nc3ccc(S(=O)(=O)Nc4ncccn4)cc3)c2)CC(C)O1 (centres undefined) | i | -13%
26 | O=S(=O)(N1CCCCC1)N1CCCN(S(=O)(=O)N2CCCCC2)CC1 | . | -16%
27 | C/C(=N\N(C)c1ccccc1)c1c(O)[nH]c(=O)[nH]c1=O | -9% | -1%
28 | COc1cccc(C(=O)Cn2c(=O)n(CC3CCCO3)c(=O)c3ccccc32)c1 (centres undefined) | . | -2%
29 | COc1ccc(-c2csc(NC(=O)c3c(C)noc3C)n2)cc1F | i | -20%
30 | CCN1C(=O)S/C(=C/c2ccc(Oc3ccc([N+](=O)[O-])cn3)c(OC)c2)C1=O | -18% | ?

Gathered by group: the entries above with an NH in an aromatic ring
item | smiles | Vaccinia mCherry | Vaccinia Venus
8 | Cc1ccc2[nH]c(O)c(N=NC(=O)CCc3ccccc3)c2c1Br | -12% | -1%
11 | CCc1c(C)nc(N2CCN(c3ccc(Cl)cc3)CC2)[nH]c1=O | -15% | 7%
27 | C/C(=N\N(C)c1ccccc1)c1c(O)[nH]c(=O)[nH]c1=O | -9% | -1%

Going on with the list:
item | smiles | Vaccinia mCherry | Vaccinia Venus
31 | COc1ccc(S(=O)(=O)N(CCCN2CCOCC2)Cc2cccc3ccccc23)cc1 | . | -16%
32 | O=C(c1cc(-c2ccccc2O)on1)N1CCc2ccccc2C1 | -10% | -8%
33 | Cc1ccc(NS(=O)(=O)c2cccc(C(=O)NCC(c3ccc(F)cc3)N3CCOCC3)c2)cc1 (centres undefined) | -26% | -5%
34 | CCOc1ccc(CCNC(=O)CS(=O)Cc2nc(-c3ccccc3Cl)oc2C)cc1OCC (centres undefined) | -4% | -12%
35 | CC(NC(=O)c1ccc(Cl)c(Cl)c1)c1ccc(-c2ccccc2)cc1 (centres undefined) | -8% | -21%
36 | Cc1cc(F)ccc1NC(=O)CN1C(=O)CCc2cc(S(=O)(=O)N3CCOCC3)ccc21 | -8% | 6%
37 | CCN1C(=O)[C@H]2[C@@H](c3ccc(-c4ccc(F)cc4)cc3)N[C@@](CC(C)C)(C(=O)OC)[C@H]2C1=O | ? | -25%
38 | CC1CCCC/C1=N\Nc1ccc(S(N)(=O)=O)cc1[N+](=O)[O-] (centres undefined) | -13% | -10%
39 | CN=CC1=C(O)C(C(=O)OC)C(C)(C)CC1=O (centres undefined) | -15% | -3%
40 | c1ccc2sc(C3CCNCC3)nc2c1 | -16% | -14%
41 | Cc1ccc(NC(=O)c2cc(-c3ccc4c(c3)OCO4)on2)cc1 | -7%&-4% | -1%&1%
42 | NC(c1csc(NC(=O)c2cccc(OC(F)(F)F)c2)n1)c1ccccc1Cl (centres undefined) | ? | ?
43 | CN(Cc1ccc(F)cc1)C(=O)C(Cc1ccccc1)NC(=O)c1ccccc1 (centres undefined) | 5% | -4%
44 | Cc1ccccc1C(=O)Oc1cccc2c(O)cccc12 | ? | -21%
45 | Cc1ccc2c(c1)C/C(=C/c1ccc(N(C)C)cc1)C2=O | 11% | 15%
46 | Cc1cc(Br)ccc1NC(=O)C1CCCO1 (centres undefined) | i | -9%
47 | COc1ccc(C(=O)NC(=S)NC(C)(C)C)cc1Br | -17%[1.46 µM] | -7%
48 | Cc1cccc(N2CCN(S(=O)(=O)c3nnc(NC(=O)c4ccc(Cl)cc4)s3)CC2)c1 | -19% | -25%
49 | CCCCCC(=O)N1C[C@H](O)[C@@H](n2cc(-c3ccc(F)cc3)nn2)C[C@@H]1c1ccc(OC)cc1 | -24% | -19%
50 | C#CCOCCOCCOCCNc1nc(N2CCN(C(=O)Cn3cc(CCCCN)nn3)CC2)nc(N2CCN(C(=O)[C@H](C(C)C)n3cc(CCO)nn3)CC2)n1 | i | -13%
51 | COC(=O)CN(c1ccc(Cl)cc1C)S(C)(=O)=O | -6% | -16%
52 | O=C(Nc1ccc(O)c(-c2nc3ccccc3s2)c1)c1cc(=O)c2ccccc2o1 | -15% | -14%
53 | Cc1ccsc1C(=O)C1CCCN(Cc2cnc(N3CCOCC3)s2)C1 (centres undefined) | -22% | -13%
54 | O=C(O)c1ccccc1C(=O)NCCc1c(C(=O)O)[nH]c2ccc(Cl)cc12 | 0% | -2%
55 | CC(=O)Nc1ccc(NS(C)(=O)=O)cc1 | -4% | -10%
56 | COc1ccc(-c2cccc(NS(=O)(=O)c3cc(C)c(Cl)cc3C)c2)nn1 | -6% | -10%
57 | CCc1ccc(Oc2c(C(F)(F)F)oc3c(CN4CCCC(C)C4)c(O)ccc3c2=O)cc1 (centres undefined) | -6% | -1%
58 | COc1ccccc1NC(=O)C(C)OC(=O)/C(=C/c1ccccc1)NC(C)=O (centres undefined) | -5% | -11%
59 | CCCS(=O)(=O)N1CCN(CCN2C(=O)c3cccc4cccc(c34)C2=O)CC1 | i | -5%
60 | NC(=O)Nc1ccc(/C=C2\C=Cc3ccccc32)cc1 | -20% | -29%
61 | CCc1nc2c(OCCn3cccc3)cccn2c1N(C)C(=O)c1ccccc1F | i | -1%
62 | Cc1ccc(CN2CCN(/N=C/c3cc(Br)cc(Br)c3O)CC2)c(C)c1 | -14% | -5%
63 | O=C(CSc1ncn[nH]1)N1c2ccccc2Sc2ccccc21 | -3% | -13%
64 | CCNc1nc(NC(C)C)nc(-c2ccncc2)n1 | -7% | 1%
65 | CCC(=O)NC(=S)Nc1ccc(NC(=O)CC)cc1 | -15% | -7%
66 | CCn1ccc2cc(S(=O)(=O)N3CCC(C(=O)NCc4cccc(C)c4)CC3)ccc21 | -20% | -11%
67 | O=C(NCc1ccc(F)cc1)c1cccc(S(=O)(=O)N2CCCC2)c1 | . | ?
68 | COc1cc(/C=N/NC(=O)c2ccc(N)cc2)ccc1OC(=O)c1cccc(C)c1 | -15% | -23%
69 | CN(C)S(=O)(=O)c1ccc(C(=O)Nc2cccc(C(=O)N3CCOCC3)c2)cc1 | i | -5%
70 | CCCCc1ccc(NC(=O)c2cc3c(=O)n4ccccc4nc3n2C)cc1 | -9% | 0%
71 | COCC1CCCN(Cc2ccc3c(c2)CN(C(=O)c2cc(-c4ccccc4)n[nH]2)CCO3)C1 (centres undefined) | -8% | -17%
72 | CN(C)CC(C)(C)CNC(=O)c1cc(Br)cc(Br)c1O | i | -7%
73 | CCOC(=O)N1CCN(C(=O)CSc2cc(C)nc3c(-c4ccccc4OC)c(C)nn23)CC1 | -5% | -13%
74 | CCc1nnc(NC(=O)C=C(C)C)s1 | . | 8%
75 | CCCCn1nnnc1C(c1ccccc1)N1CCN(C/C=C/c2ccccc2)CC1 (centres undefined) | 2% | -3%
76 | Clc1cc(NCc2ccccc2)ncn1 | i | -12%
77 | CCOc1cc(/C=C/C(=O)c2ccc(OC)c(CN3CCOCC3)c2)cc(Br)c1O | 11µM* | 184%[activator]
78 | COC(=O)c1ccc(C2CC(=O)Nc3cc(OC)c(OC)c(OC)c32)cc1 (centres undefined) | . | -2%
79 | CN(C(=O)c1cccc(NC(=O)Cc2cccc(NC(=O)C3CCCN(C(=O)CCc4ccccc4)C3)c2)c1)C1CCC1 (centres undefined) | ? | ?
80 | CC(=O)Nc1cccc(Oc2cc(C#N)c(C#N)cc2N2CCCCCC2)c1 | -27% | ?
81 | O=C(COC(=O)C1CC(=O)N(Cc2ccccc2)C1)c1ccc(F)cc1 (centres undefined) | -15% | -15%
82 | c1cnc2ccc3ncccc3c2c1 | -19% | -14%
83 | CC1=C(C(=O)N2CCCCCC2)CC(CC(=O)NCC2CCCCC2)C(=O)N1Cc1ccc(F)cc1 (centres undefined) | -22% | -19%
84 | CCCCn1cnc2c(=S)nc(N)[nH]c21 | -5% | -10%
85 | COc1cc(C(=O)Nc2ccc3oc(-c4cccnc4)nc3c2)cc(OC)c1OC | -17% | -8%&-19%
86 | Cc1ccc(NC(=O)Nc2nnc(SCC(=O)N(C(C)C)C(C)C)s2)cc1 | -4%[7.34 µM] | -13%[7.34 µM]
87 | COc1cccc(CN2CCN(Cc3cccc4c3OCO4)CC2CCO)c1 (centres undefined) | -8% | 1%
88 | CC(=NNC(=S)N(Cc1ccccn1)Cc1ccccn1)c1cnccn1 | 1.4µM* | 3.5µM*
89 | CSC1=N/C(=C\c2c(F)cccc2Cl)C(=O)S1 | -23% | -16%
90 | CN1C(=O)Cc2cc(S(=O)(=O)CCC(=O)N3CCN(c4ccc(Cl)cc4)CC3)ccc21 | -15% | 1%

Other entries follow:
item | smiles | Vaccinia mCherry | Vaccinia Venus
91 | Cc1ccc(CNC(=O)CN2C(=O)c3ccccc3S2(=O)=O)cc1 | -3% | -15%
92 | O=C(CN1CCOCC1)N/N=C/c1ccc(-c2cccc(Cl)c2Cl)o1 | -4% | -14%
93 | COc1ccc(-c2c(-c3ccc(O)cc3O)n[nH]c2C(F)(F)F)cc1 | -5%[7.34 µM] | 7%[7.34 µM]
94 | COc1ccc(S(=O)(=O)Nc2nc3n(n2)C(c2ccc(Cl)cc2)CC(=O)N3)cc1 (centres undefined) | . | 0%
95 | O=C(CCNS(=O)(=O)c1ccccc1)OCc1nnc(-c2ccccc2)o1 | -1% | -26%
96 | N=C1C(c2ccccc2)=C(O)CN1c1ccccc1N1CCOCC1 | i | -9%
97 | CCc1ccccc1NC(=O)Cn1c(C(=O)OC)cc2oc(C)cc21 | -8% | -6%
98 | O=C(Nc1ccccc1Cl)NC1(C(=O)N2CCCC2)CCCCC1 | . | -5%
99 | Cn1c(=O)cc(SCC(=O)NCCC2=CCCCC2)c2ccccc21 | -2% | -11%
100 | COc1ccc(S(=O)(=O)N2CCN(c3ccccc3)CC2)cc1 | -8% | -9%
101 | Cc1ccc(OC(=O)c2ccccc2C(=O)OCC(F)(F)C(F)F)cc1 | . | -7%
102 | O=C(CNS(=O)(=O)c1cccs1)NCc1ccccc1 | i | -20%
103 | Cn1c(N2CCCCC2)nc2c1c(=O)n(Cc1cccc(Br)c1)c(=O)n2C | 0% | -13%
104 | COc1ccc(C(=O)N2CCCC2)cc1 | -13% | -10%
105 | O=C(Nc1ccc(S(=O)(=O)N2CCCC2)cc1)C1CCCCC1 | -15% | -9%
106 | CCCS(=O)(=O)c1c(S(=O)(=O)CCC)c2c(N)cccn2c1C(=O)c1ccc(Br)cc1 | ? | -19%
107 | Cc1nn(-c2ccc(Cl)cc2)c2nc(-c3cccnc3)cc(C(F)(F)F)c12 | -9% | -11%

From compound 106 up to 107, as listed above:
item | smiles | Vaccinia mCherry | Vaccinia Venus
106 | CCCS(=O)(=O)c1c(S(=O)(=O)CCC)c2c(N)cccn2c1C(=O)c1ccc(Br)cc1 | ? | -19%
107 | Cc1nn(-c2ccc(Cl)cc2)c2nc(-c3cccnc3)cc(C(F)(F)F)c12 | -9% | -11%

Along the list, from the results shown:
Vaccinia mCherry, entries 101–107, in order: ., i, 0%, -13%, -15%, ?, -9%
